High-throughput results from PubChem BioAssay.
Rce1 inh = yeast Ras-converting enzyme inhibition; Q03530; yeast membranes, quenched prenylated peptide cleavage fluorescence; calls only; 0.27% of 290,000 active; AID 2563;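 active = fall in fluorescence gain of 50% or more versus controls, with final raw signal at or below 3038400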;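 note: plate controls were neutral control wells for no effect and wells lacking membranes for full effect; tested at 10 µM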
Target sequence (Q03530 whole entry, looked up): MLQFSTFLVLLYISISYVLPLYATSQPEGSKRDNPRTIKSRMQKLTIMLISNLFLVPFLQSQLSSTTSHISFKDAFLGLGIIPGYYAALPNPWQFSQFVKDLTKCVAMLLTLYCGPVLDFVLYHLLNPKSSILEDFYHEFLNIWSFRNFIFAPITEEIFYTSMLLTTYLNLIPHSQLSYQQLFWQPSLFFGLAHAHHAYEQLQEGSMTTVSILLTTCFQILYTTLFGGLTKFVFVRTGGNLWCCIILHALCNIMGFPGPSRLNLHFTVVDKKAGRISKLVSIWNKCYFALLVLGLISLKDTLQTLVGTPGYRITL
CSC inhib = blocks cancer stem cells | cancer stem cell-like cells viability, luminescence | inhibition, % at 7.5 µM | 1.1% of 300,000 active | AID 2717;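 active = mean at 75% or more and at least half the replicates too; tested in HMLE shEcad cells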;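 note: 0% = median of negative and 100% = median of positive control wells; the first replicate is given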
eIF4H inh = inhibitors of RNA binding by human eIF4H; eIF4H fluorescence polarization binding assay; AID 2012; 0.94% of 290,000 active; inhibition, % at 35 µM;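 active = 50% or more with normal probe brightness, or confirmed in later tests; about a fifth of its hits are not listed in these tables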;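 note: calls also rest on retests at 20 µM and on dose response follow-up; 0% = protein and probe with vehicle and 100% = probe without protein; strong numbers were not always called active; many hits fall short of the cut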
Env fusion inh = HIV envelope-mediated fusion inhibition; HeLa-JRFL Env/CEM21 cell fusion, luciferase; inhibition, % at 12.3 µM; AID 651610; 1.1% of 360,000 active;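 active = mean replicate inhibition score of at least 50 and every replicate individually at or above 50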;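 note: 0% = plate neutral controls and 100% = maraviroc near 300 nM; one replicate is shown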
PABP FP inh = PABP-poly(A) binding inhibition; P11940; 1% of 290,000 active; AID 2014; inhibition, % at 35 µM; PABP-poly(A) RNA binding, fluorescence polarization;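 active = 50% or more with normal probe brightness, or confirmed in later tests; about a fifth of its hits are not listed in these tables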;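 note: calls also rest on retests at 20 µM and on dose response follow-up; controls were probe without protein and protein plus probe with vehicle; some compounds called inactive have numbers as strong as hits; many hits fall short of the cut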
Target sequence (P11940 whole entry, looked up): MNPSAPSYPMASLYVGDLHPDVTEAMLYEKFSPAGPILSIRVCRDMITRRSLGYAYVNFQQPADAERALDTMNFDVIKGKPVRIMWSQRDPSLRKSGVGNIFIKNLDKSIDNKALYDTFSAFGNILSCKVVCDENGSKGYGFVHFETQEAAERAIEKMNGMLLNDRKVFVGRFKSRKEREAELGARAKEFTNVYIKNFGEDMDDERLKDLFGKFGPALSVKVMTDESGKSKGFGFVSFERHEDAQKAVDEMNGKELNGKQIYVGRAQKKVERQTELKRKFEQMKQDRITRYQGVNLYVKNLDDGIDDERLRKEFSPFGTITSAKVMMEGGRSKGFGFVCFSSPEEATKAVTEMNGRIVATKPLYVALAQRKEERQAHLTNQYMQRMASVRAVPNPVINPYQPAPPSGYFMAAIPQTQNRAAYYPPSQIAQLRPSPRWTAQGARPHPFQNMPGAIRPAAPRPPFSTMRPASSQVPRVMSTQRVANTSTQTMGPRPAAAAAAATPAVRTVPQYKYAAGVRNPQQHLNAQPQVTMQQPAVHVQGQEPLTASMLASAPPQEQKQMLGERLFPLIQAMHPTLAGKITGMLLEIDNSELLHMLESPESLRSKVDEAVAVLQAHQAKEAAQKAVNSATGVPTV
Yeast UUG start = modulators of start codon recognition fidelity in yeast. S. cerevisiae UUG-firefly luciferase reporter, luminescence/redox ratio. activity score, % at 18.7 µM. 0.13% of 350,000 active. AID 602363;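 active = replicate mean at a twofold rise or more, about +100% in these data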;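 note: firefly luciferase made from a UUG start codon reports start codon fidelity; reporter light over untreated wells divided by growth signal over untreated wells; some hits fall short of that in this replicate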
MT1-MMP act inh = inhibitors of human MT1-MMP activation. AID 651647. 0.061% of 360,000 active. GFP/RFP ratio change, % at 20 µM. P50281. HT1080 RFP-PRO-GFP cells, GFP/RFP ratio fluorescence, overnight; percent of plate control window, DMSO zero;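 active = GFP/RFP ratio change of at least 30% with cell ATP level not reduced by more than half and red fluorescence within 50% of control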; note: strong numbers were not always called active
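Assay system: HT1080 cells carrying an RFP-PRO-GFP reporter | Dosing: Single dose of 20 µM compound, 1% DMSO final | Incubation: Cells overnight before dosing, compound overnight, 37 °C, 5% CO2 | Evaluation: GFP/RFP fluorescence ratio | Control set: DMSO and RFP-L50D-GFP cell wells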
eIF4H inh retest = further read-out of eIF4H inh, marked with its call; inhibition, %; compound at 20 µM; confirmation average;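 mean of two retest wells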
PABP FP inh retest = second read-out of PABP FP inh, no call of its own (marks repeat the call); inhibition, %; compound at 20 µM; confirmation repeats;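 mean of two retest wells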
MT1-MMP act inh RFP = also measured in MT1-MMP act inh; calls as there; RFP signal change, %; measured here: RFP expression control read;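 0 = vehicle wells; hits needed this value within 50% of zero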
Active calls of the source: *; i = inactive; / = no result given. Some of the compounds tested; rates above refer to the full screens.

SMILES	Rce1 inh	CSC inhib	eIF4H inh	Env fusion inh	PABP FP inh	Yeast UUG start	MT1-MMP act inh	MT1-MMP act inh RFP	others
CCn1c(C2CC(=O)N(c3cc(C)cc(C)c3)C2)nc2ccccc21 (centres undefined)	i	3	-9	7	2	-21	0	0
CCOC(=O)c1nc2nc(C)cc(=O)n2[nH]1	i	-12	-1	-20	17	-12	-8	-6
Cc1noc(C)c1S(=O)(=O)N(C)C[C@H]1Oc2ccc(NC(=O)Cc3ccccc3)cc2C(=O)N([C@H](C)CO)C[C@@H]1C	/	/	/	9	/	13	7	4
CCCOC(=O)C1=C(C)NC2=C(C(=O)C(C(=O)OC)C(C)C2)C1c1ccc(N(CC)CC)cc1 (centres undefined)	/	4	5	-37	0	-18	-14	-8
CCOc1cc2[nH]c(=O)n(Cc3cccc(OC)c3)c(=O)c2cc1OCC	i	-14	2	15	1	-22	4	-9
Fc1ccc(Cn2nnnc2C(c2ccc(Cl)cc2)N2CCSCC2)cc1 (centres undefined)	i	-3	-5	52*	-4	-12	-7	-4
O=C(NCCc1csc(-c2cccnc2)n1)c1ccco1	i	-9	4	-11	15	-11	-5	2
COc1ccc(OCCSCc2nnc(NC(=O)Nc3ccc(Cl)cc3)s2)cc1	i	21	-3	27	1	/	-2	-7
CCSc1oc(-c2ccccc2)nc1S(=O)(=O)c1ccccc1	i	8	5	/	6	-11	-9	-11
CC1CCN(CC(=O)NCc2ccco2)CC1	/	0	8	-7	1	-6	-16	-4
COc1cc(NC(=O)CSc2nnc(Cn3nnc4ccccc43)n2C)cc(OC)c1	i	-7	-5	-8	-4	-18	4	2
O=C(COc1ccc(F)cc1Br)NCC1(N2CCCCC2)CCCCC1	/	-4	/	0	/	-9	4	-1
CN(C)C(=O)/C(C#N)=C\c1cc(Br)c(Sc2ccc(Cl)cc2)o1	/	103*	-8	/	-3	/	-33	-18
O=C(CSc1nc2cccnc2n1Cc1ccccc1)NCc1ccco1	i	13	9	-21	1	6	-1	4
O=C(NC1CCCc2ccccc21)c1cc(S(=O)(=O)N2CCOCC2)ccc1F (centres undefined)	i	-13	-6	0	6	22	1	0
Cc1ccc(-c2cnc3cccnn23)cc1F	/	/	/	-14	/	-15	-3	0
Cc1ccc(C(=O)C(OC(=O)CN2C(=O)c3ccccc3C2=O)c2ccccc2)cc1C (centres undefined)	i	-7	3	/	-4	/	-4	-1
O=C(Nc1nc2ccccc2[nH]1)c1cccs1	i	3	-7	-48	3	-15	8	3
CCN1CCN(C(=O)CN(c2ccccc2C)S(C)(=O)=O)CC1	i	-14	-8	-21	4	-21	-1	0
CCN(Cc1ccccc1)C(=O)CSc1nc(C)cc(=O)[nH]1	i	9	-3	1	-7	-6	4	5
CCCN(CC(=O)Nc1cc(Cl)ccc1Cl)C(=O)c1ccccc1SCC(=O)N1CCCC1	i	13	/	/	/	/	-5	-3
Cc1ccc(N(C=NC#N)CC(=O)N2CCN(c3ccccc3)CC2)cc1	i	/	-2	/	9	-10	4	2
CC(C)(C#CC(O)(c1ccccc1)c1ccccc1)N1CCCCC1	i	-4	7	15	1	-2	-2	2
O=C(/C=C/c1ccccc1[N+](=O)[O-])NC1CCCC1	i	7	-2	7	-7	/	-9	3
COCCN(C(=O)COC(=O)CSc1ccc(Cl)cc1)c1c(N)n(Cc2ccccc2)c(=O)[nH]c1=O	i	-6	/	1	/	/	1	0
O=C(COC(=O)c1ccc(O)cc1O)NC1CCS(=O)(=O)C1 (centres undefined)	i	12	7	17	-9	-5	5	3
O=C(NCc1n[nH]c(=O)c2ccccc12)C1CC(=O)N(c2ccccc2)C1 (centres undefined)	i	8	/	-4	/	3	2	0
CCOC(=O)c1c(C)[nH]c(C)c1S(=O)(=O)N(C)CC(=O)N1CCN(c2ccc(OC)cc2)CC1	i	-9	1	-2	1	-20	5	2
CC(=O)c1ccc(N2CCN(C(=O)C3CCN(S(=O)(=O)c4cccs4)CC3)CC2)cc1	i	4	-4	15	2	-14	-9	-7
CCN1C=C(Cc2ccccc2C)C2=C(C1)C(c1ccccc1C)C(C#N)=C(N)O2 (centres undefined)	i	10	20	/	52*	-3	-3	3	eIF4H inh retest=27;PABP FP inh retest=81*
Cc1cccc(C2=NNC(=O)C(c3ccc(Cl)cc3)C2)c1 (centres undefined)	i	9	54	13	5	/	-4	-4	eIF4H inh retest=0;PABP FP inh retest=-4
O=C(Nc1cc(=O)[nH]c(=O)[nH]1)c1cccc(Br)c1	i	47	1	-41	7	/	-2	-13
O=C(NCCCn1ccnc1)c1ccc(Cl)cc1[N+](=O)[O-]	i	7	3	0	-6	/	-5	-4
Cc1nnc(C)c2c(C)n(-c3cccc4cccnc34)c(C)c12	i	-1	22	/	3	/	/	/
COc1ccc(CC(=O)Nc2nnc(-c3cccc([N+](=O)[O-])c3)s2)cc1	i	9	2	-11	-2	-19	1	4
Nc1nc(SCC(=O)Nc2ccc(S(N)(=O)=O)cc2)n[nH]1	i	-10	11	3	-1	-18	3	1
Cc1ccc(/C=C/C(=O)NCc2ccncc2)cc1	i	-2	-5	12	120	-13	2	0	eIF4H inh retest=-6;PABP FP inh retest=7
CCc1nnc(SCC(=O)Nc2ccccc2)n1CC1CCCO1 (centres undefined)	i	3	-26	-35	-6	-6	-2	3
CCCn1cnc2scc(-c3ccc(C)c(C)c3)c2c1=O	i	-9	-10	13	-9	-15	-5	-6
CCc1cccc(C)c1NC(=S)NCC(c1cccnc1)N(C)C (centres undefined)	i	3	-10	-18	-10	/	0	-2
CSc1ccc(S(=O)(=O)NCc2ccc(Cl)cc2Cl)cc1	i	0	-2	27	-4	-7	4	5
C/C(=N\NC(=O)c1nnn(-c2nonc2N)c1CSc1ccccc1)c1cccnc1	i	2	1	7	0	-19	0	5
O=C(CCC1CCCCC1)NCc1ccc(F)cc1	i	-4	-8	0	-4	/	1	4
Cc1ccc2nc(NC(=S)NC(=O)c3ccco3)sc2c1	i	-3	9	/	3	/	-1	5
O=C(NCCc1cccc(C(F)(F)F)c1)C1CCC(=O)N(C2CC2)C1 (centres undefined)	i	-2	-8	-8	4	11	4	6

Sorted by formula weight (low to high): 6 of the compounds above
SMILES	Rce1 inh	CSC inhib	eIF4H inh	Env fusion inh	PABP FP inh	Yeast UUG start	MT1-MMP act inh	MT1-MMP act inh RFP	others
Nc1nc(SCC(=O)Nc2ccc(S(N)(=O)=O)cc2)n[nH]1	i	-10	11	3	-1	-18	3	1
O=C(NCCc1cccc(C(F)(F)F)c1)C1CCC(=O)N(C2CC2)C1 (centres undefined)	i	-2	-8	-8	4	11	4	6
COc1ccc(CC(=O)Nc2nnc(-c3cccc([N+](=O)[O-])c3)s2)cc1	i	9	2	-11	-2	-19	1	4
O=C(COc1ccc(F)cc1Br)NCC1(N2CCCCC2)CCCCC1	/	-4	/	0	/	-9	4	-1
CCCOC(=O)C1=C(C)NC2=C(C(=O)C(C(=O)OC)C(C)C2)C1c1ccc(N(CC)CC)cc1 (centres undefined)	/	4	5	-37	0	-18	-14	-8
Cc1noc(C)c1S(=O)(=O)N(C)C[C@H]1Oc2ccc(NC(=O)Cc3ccccc3)cc2C(=O)N([C@H](C)CO)C[C@@H]1C	/	/	/	9	/	13	7	4

(listing goes on)
SMILES	Rce1 inh	CSC inhib	eIF4H inh	Env fusion inh	PABP FP inh	Yeast UUG start	MT1-MMP act inh	MT1-MMP act inh RFP	others
Cc1noc(C)c1S(=O)(=O)N(C)C[C@H]1Oc2ccc(NC(=O)C3CCCCC3)cc2C(=O)N([C@H](C)CO)C[C@@H]1C	/	-26	/	-28	/	-22	5	1
CC=CCn1c(SCCCc2ccccc2)nc2c1c(=O)[nH]c(=O)n2C	/	/	/	-8	/	-9	3	-19
Cc1ccc(S(=O)(=O)N2CCCCC2)cc1NC(=O)c1ccc(Br)o1	/	-5	/	-14	/	/	-2	-1
c1ccc(Nc2nc(NCC3CCCO3)c3ccccc3n2)cc1 (centres undefined)	i	10	8	22	-23	-5	4	-15
CC1CCC2(CC1)NC(=O)N(CC(=O)Nc1ccc3c(c1)OCCCO3)C2=O (centres undefined)	/	-18	/	/	/	-34	0	6
Cc1cccc(CN(CC(=O)N/N=C/c2cccs2)S(=O)(=O)c2ccc(Cl)cc2)c1	/	9	-11	/	2	-2	-1	-7
Cc1c(OCC(=O)NCc2ccccn2)ccc2c3c(c(=O)oc12)CCCC3	i	-6	-5	-7	-7	-11	-1	1
CCOC(=O)CN1C(=O)C(C)(C)Oc2ccc(C(=O)Nc3ccccc3)cc21	i	-1	3	-95	-12	-1	2	-2
Cc1ccc(C)c(S(=O)(=O)N2CCN(C(=O)c3cnccn3)CC2)c1	i	1	5	-60	-14	-4	-2	1
CC(Oc1ccc2ccc(=O)oc2c1)C(=O)NC1CC(C)(C)NC(C)(C)C1 (centres undefined)	i	-19	-2	3	1	-18	3	7
CCCc1nc2c(s1)CCc1onc(-c3ccc(OC)cc3)c1-2	i	-2	/	0	/	2	7	-1
CC(C)=N/N=c1\scc(C)n1Cc1ccco1	i	13	10	-5	6	/	-7	0
CC1=CCC2C(=O)N(c3ccc(Br)cc3C)C(=O)C2C1 (centres undefined)	i	-15	-10	-7	-6	4	1	4
Cn1c(CNC(=O)c2ccccc2F)nnc1SCc1ccc(F)cc1	/	-20	0	-2	1	/	1	1
Cc1ccccc1NC(=S)N/N=C/C(C)c1ccccc1 (centres undefined)	i	/	5	-8	8	-18	1	-3

A run of entries taken from the entries so far, for reference:
SMILES	Rce1 inh	CSC inhib	eIF4H inh	Env fusion inh	PABP FP inh	Yeast UUG start	MT1-MMP act inh	MT1-MMP act inh RFP	others
Cc1noc(C)c1S(=O)(=O)N(C)C[C@H]1Oc2ccc(NC(=O)C3CCCCC3)cc2C(=O)N([C@H](C)CO)C[C@@H]1C	/	-26	/	-28	/	-22	5	1
CC=CCn1c(SCCCc2ccccc2)nc2c1c(=O)[nH]c(=O)n2C	/	/	/	-8	/	-9	3	-19
Cc1ccc(S(=O)(=O)N2CCCCC2)cc1NC(=O)c1ccc(Br)o1	/	-5	/	-14	/	/	-2	-1

Continued:
SMILES	Rce1 inh	CSC inhib	eIF4H inh	Env fusion inh	PABP FP inh	Yeast UUG start	MT1-MMP act inh	MT1-MMP act inh RFP	others
CCCN(CCC)CCCn1c(=O)[nH]c2ccccc21	i	-4	-2	7	-11	-4	2	2
COCCn1c(SCCCC(=O)c2ccc(Br)cc2)nnc1-c1ccncc1	i	-3	-13	/	-7	/	2	-25
O=C(O)/C(=C\c1cccc(F)c1)c1ccc(S(=O)(=O)N2CCCCC2)s1	i	-5	3	11	6	/	7	4
Cc1c(C(=O)N2CCCCCC2(C)C(=O)NCC(C)C)oc2ccccc12 (centres undefined)	/	/	/	-25	/	-15	-2	0
O=C(CSc1ccc(-c2ccco2)nn1)NCCc1ccccc1	i	-6	42	16	3	/	2	-1
COc1cccc(C(=O)Oc2cc3c4c(c2)C(C)=CC(C)(C)N4C(=O)C3=O)c1	i	7	-4	/	-14	11	-17	0
CCOc1ccc2nc(NC(=O)COc3ccc(N(C)S(=O)(=O)c4ccc(C)cc4)cc3)sc2c1	i	-2	3	9	4	-3	-3	-27
COc1cc(OC)c(-c2nn3c(C4CCCCC4)nnc3s2)cc1OC	i	-2	-2	/	-5	-11	4	-4
